HNF4A DNA FP – change in binding of human HNF4 alpha to DNA; P41235; HNF4a-FITC DNA binding, fluorescence polarization, 1 h; activity change, % at 10 µM; actives 0.3% (n = 360,000); in the data active = activity change above about 30%, passing the limit was not always enough;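 note: controls were the assay level and a saturating level of protein; the project sought stronger binding though the title names inhibitors; some compounds called inactive have numbers as strong as hits; positive values seem to mean higher polarization but the record does not say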
Target sequence (P41235 whole entry, looked up): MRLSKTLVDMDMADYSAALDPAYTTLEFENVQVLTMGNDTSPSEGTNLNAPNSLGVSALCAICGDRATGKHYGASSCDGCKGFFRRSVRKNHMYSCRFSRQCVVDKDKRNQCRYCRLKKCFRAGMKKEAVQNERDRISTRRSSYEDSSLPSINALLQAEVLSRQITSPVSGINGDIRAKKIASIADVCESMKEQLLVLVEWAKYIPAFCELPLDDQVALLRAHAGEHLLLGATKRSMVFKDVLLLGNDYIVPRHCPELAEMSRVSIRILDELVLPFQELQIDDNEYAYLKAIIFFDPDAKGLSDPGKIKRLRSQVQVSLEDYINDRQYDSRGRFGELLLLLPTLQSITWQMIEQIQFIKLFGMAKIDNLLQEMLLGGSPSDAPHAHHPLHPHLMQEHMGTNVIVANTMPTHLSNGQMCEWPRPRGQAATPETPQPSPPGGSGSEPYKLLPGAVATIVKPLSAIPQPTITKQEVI
LANA-H2B inh – blocks KSHV LANA binding to histone H2A/H2B. actives 0.6% (n = 320,000). inhibition, % (test concentration not listed). AID 2629. cell-free LANA-H2A/H2B peptide, fluorescence polarization; in the data active = inhibition mostly above about 10%, no sharp cut-off; inactive = mostly below about 6.7%;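 note: stock transfer was 7.5 nL into about 10 µL; 0% = median of vehicle wells and 100% = median of positive control wells; one replicate is shown; the record names a cut of 25% in any replicate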
Bfl-1 A1 inh – inhibitors of the anti-apoptotic protein A1, read as caspase activation | MEF A1-2A-BIM cells, Caspase-Glo 3/7 luminescence, 3 h; percent of clofoctol response, vehicle zero | caspase activation, % (no concentration beside the values) | actives 0.066% (n = 330,000) | AID 2462;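 active = over half of replicate activation scores above 10%, or exactly half above 10 with the replicate mean above 10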;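 note: wells of about 30 µL received 50 nL stock; many hits fall short of the cut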
E coli growth – inhibitors of Escherichia coli growth | actives 0.21% (n = 330,000) | OD600 absorbance (concentration not given with the values) | OD600, 23 h; stronger effect = lower value | AID 1053175;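 active = OD600 absorbance below the run mean of sample wells minus 3.6 SD, in any replicate, cut at about 0.56 in these data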;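 note: stock transfer was 300 nL into about 60 µL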
Beta2AR agonist – human beta-2 adrenergic receptor agonism by FAP | actives 0.43% (n = 340,000) | Am2.2-beta2AR cells, FAP receptor internalization, flow cytometry; reference of the scale not given here | AID 504454 | response, % (concentration not given with the values);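 active = response above a set limit, near 3 SD of response in nonfluorescent compounds, cut at about 42% in these data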;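 note: stock transfer was 100 nL into about 11 µL; a reference agonist was the positive control; negative values mostly stem from fluorescent compounds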
UCH37 DUB inh – inhibitors of human deubiquitinating enzyme UCH37. purified proteasome/UCH37, Ub-AMC cleavage fluorescence. inhibition, % (no concentration beside the values). actives 0.33% (n = 330,000). AID 588478;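 active = mean of two replicates above 20%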;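 note: 0% = compound-free wells with enzyme and 100% = wells lacking proteasome; stock transfer was 100 nL into about 20 µL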
Target sequence (Q9Y5K5 whole entry, looked up): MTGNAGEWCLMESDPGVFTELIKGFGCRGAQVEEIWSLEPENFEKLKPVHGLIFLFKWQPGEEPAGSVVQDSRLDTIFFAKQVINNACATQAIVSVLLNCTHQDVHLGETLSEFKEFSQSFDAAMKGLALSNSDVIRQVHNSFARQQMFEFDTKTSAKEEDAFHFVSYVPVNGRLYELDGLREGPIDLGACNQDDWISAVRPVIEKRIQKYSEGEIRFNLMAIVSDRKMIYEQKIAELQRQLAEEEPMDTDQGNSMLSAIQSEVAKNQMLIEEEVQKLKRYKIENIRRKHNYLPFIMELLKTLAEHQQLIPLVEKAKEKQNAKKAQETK
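Material: human UCH37 enzyme supplied as purified proteasome complex / Amount: 0.15 nM proteasome as dispensed / Buffer or medium: pH 7.4 Tris-HCl (50 mM) with ovalbumin, ATP-MgCl2, DTT / Times: preincubation 30 min, reaction 25 min, room temperature / Technique: AMC fluorescence from Ub-AMC cleavage, excitation 355 nm, emission 460 nm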
Vif A3G – HIV-1 Vif–A3G interaction blockers – biochemical, TR-FRET, GST-Vif 1-94, biotin-A3G peptide, dose response retest, primary screen (AID 1117319); TR-FRET GST-Vif / biotin-A3G peptide binding; higher % means a stronger effect; test concentration not given here; strong numbers were not always called active; inhibition, %; hits with a dose series show IC50 in µM; actives 0.57% (n = 260,000);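 active = above the screen mean plus three standard deviations and confirmed in dose response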;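 note: Vif residues 1-94 fused to GST binding biotinylated APOBEC3G peptide 110-148; 0% = full assay without inhibitor and 100% = GST in place of GST-Vif; retest series ran down from 100 µM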
* = called active by the depositor; i = inactive; nt = not tested or not shown; & = joins results of further samples.

SMILES,Bfl-1 A1 inh,E coli growth,UCH37 DUB inh,Beta2AR agonist,Vif A3G,LANA-H2B inh,HNF4A DNA FP
Cn1c(=O)c2c(nc(N3CCc4ccccc4C3)n2Cc2ccc(Br)cc2)n(C)c1=O,0.8,0.786,2.0,-11.6,3.8%,0.2,0.7
O=C(O)CCC(=O)N1CCC[C@H]1C(=O)O,1.4,nt,19.7,-3.6,6.2%,-2.7,2.1
Cc1c(NC(=O)C(C)OC(=O)CCC2CCCC2)c(=O)n(-c2ccccc2)n1C (stereo unspecified),-0.5,0.66,0.1,-17.9,5.3%,0.6,-6.4
CCCCn1nc2cc(C(=O)NCc3cc(C(F)(F)F)cc(C(F)(F)F)c3)ccc2c1OCC,0.6,0.679,-10.4,-3.0,-3.7%,-2.5,2.4
OC(COc1ccccc1Br)CN1CCNCC1 (stereo unspecified),3.0,0.654,1.2,-10.9,3.5%,-6.2,-1.9
CCCOC(=O)/C(=C\c1ccc([N+](=O)[O-])o1)NC(=O)c1ccccc1,-0.1,0.709,3.9,2.3,4.1%,-3.6,-0.6
O=[N+]([O-])c1cccc(-c2nnc3c4ccccc4c4ccccc4n23)c1,-0.2,0.712,2.4,-4.0,-2.7%,-1.5,-0.5
CCOC(=O)c1ccc2c(c1)NC(=O)C(N1CCN(c3ccc(OC)cc3)CC1)S2 (stereo unspecified),0.6,0.735,8.1,-5.3,2.7%,-0.1,-2.4
O=C(COC(=O)c1ccc2c(=O)n3c(nc2c1)CCC3)Nc1ccccc1F,0.3,0.671,-2.7,-4.1,-17.1%,4.5,1.3
CC12CN(C(=O)c3ccc(Cl)cc3)C3(C#N)CC1CCC23C (stereo unspecified),0.1,0.727,0.6,4.1,2.4%,6.5,2.3
O=C1/C(=C/c2ccsc2)N2CCC1CC2,0.2,0.637,1.6,-6.4,nt,4.0,3.2
O=C(C1=C(O)C(=O)N(CCCN2CCOCC2)C1c1ccc(Cl)cc1)c1cc2ccccc2o1 (stereo unspecified),0.1,0.698,5.1,nt,nt,0.8,nt

Going on with the list:
SMILES,Bfl-1 A1 inh,E coli growth,UCH37 DUB inh,Beta2AR agonist,Vif A3G,LANA-H2B inh,HNF4A DNA FP
CCOc1ccc(NC(=O)NNC(=O)c2cc3ccccc3cc2O)cc1,1.2,0.688,-18.3,0.4,nt,0.1,0.1
COc1ccc(Cl)cc1NC(=O)CN(C)C(=O)Cn1cnnn1,-1.1,0.702,1.4,1.8,4.2%,7.7,1.2
CC(=O)Nc1nnc(-c2ccccn2)o1,-0.1,0.681,-11.3,1.0,nt,2.7,-0.6
Cc1nn(CC(=O)Nc2ccc3c(c2)oc2ccccc23)c(=O)c2ccccc12,-0.8,0.726,0.5,12.3,-16.2%,0.5,4.4
CCOc1cccc(NC(=O)CSc2nc(C)c3c(c2C#N)CCCC3)c1,1.1,0.691,1.3,-4.0,-5.0%,4.3,-0.9
CC(C)(C)NC(=O)CSC(=Nc1ccccc1F)NC#N,0.1,0.715,3.5,7.0,23.1%,-5.0,12.7
Cn1c(=O)[nH]c(=O)c2c1nc(N1CCN(CCO)CC1)n2CCSc1nc2ccccc2s1,-0.1,0.657,2.5,-9.3,1.2%,4.2,2.0
NNC(=O)c1csc(COc2cc(Cl)cc(Cl)c2)n1,0.4,0.633,1.6,-0.6,5.8%,1.2,6.2
N#CCN1CCN(CC(=O)Nc2cccc3ccccc23)CC1,1.1,0.679,4.3,0.9,4.3%,-0.6,-1.1
COc1cccc(N(CC(=O)NCCSc2ccccn2)S(=O)(=O)c2ccccc2)c1,0.6,0.595,3.4,17.6,nt,5.2,-1.2
O=S(=O)(Nc1ccc(Cl)cc1)c1cccc2nsnc12,0.1,0.701,2.9,-0.7,-0.3%,4.4,2.1
CCOc1cc(C(=O)NCCOC)ccc1OC,-0.1,0.744,3.6,-2.6,-4.7%,-0.4,-0.7

Going on with the list.
SMILES,Bfl-1 A1 inh,E coli growth,UCH37 DUB inh,Beta2AR agonist,Vif A3G,LANA-H2B inh,HNF4A DNA FP
COc1ccc(NC(=O)/C(=C\c2cc(OC)c(OC)cc2[N+](=O)[O-])NC(=O)c2ccccc2)cc1,-0.6,0.732,4.3,-0.6,6.1%,7.0,0.0
O=c1c2ccccc2nnn1CSc1nnc(-c2ccc3c(c2)OCO3)o1,-1.6,0.705,1.6,-8.2,-1.9%,2.2,1.4
Cc1cc(C)n(C(C)CNS(=O)(=O)c2ccc(Cl)cc2)n1 (stereo unspecified),-0.3,0.649,0.6,-2.6,nt,-1.2,-3.2
O=C1C(Cl)=C(N2CCOCC2)C(=O)N1c1ccccc1Cl,0.2,0.683,4.8,11.8,14.8%,0.6,0.6
Nc1nc(-c2ccccc2)c(-c2ccc([N+](=O)[O-])cc2)s1,0.3,0.778,3.0,-1.6,-9.4%,-3.9,12.8
Cc1ccn2cc(CCNS(=O)(=O)c3ccc4c(c3)CCCC4)nc2c1,0.7,0.668,0.4,7.1,9.6%,1.2,-3.2
O=C(CN1CCCN(S(=O)(=O)c2ccc(F)cc2)CC1)Nc1cccc(F)c1,0.4,0.708,1.7,-5.2,nt,-2.2,-0.9
O=C(Cc1n[nH]c(=O)c2ccccc12)OCC(=O)c1ccccc1,0.8,nt,nt,-0.3,-9.5%,-1.7,3.1
COc1ccc(NC(=S)NC(C)c2ccncc2)cc1OC (stereo unspecified),0.2,0.707,6.0,3.4,-1.4%,0.5,-0.4
O=C(c1cc(COc2ccc(F)c(F)c2)on1)N1CCOCC1,-0.5,0.633,4.0,3.5,nt,0.6,-4.3
Nc1ccccc1SCC(=O)Nc1nccs1,-0.5,0.643,1.2,3.0,1.4%,2.5,-1.9
c1ccc(OCCSc2nnnn2-c2ccccc2)cc1,-1.1,0.68,4.9,-3.0,-3.9%,-5.1,-2.0

(more compounds)
SMILES,Bfl-1 A1 inh,E coli growth,UCH37 DUB inh,Beta2AR agonist,Vif A3G,LANA-H2B inh,HNF4A DNA FP
CCOc1cc(/C=N/n2c(C)nc3sc(C)c(C)c3c2=O)ccc1O,1.0,nt,nt,-7.2,nt,-3.8,0.8
CCOc1ccc(N(CC(=O)NC2CCCC2)C(=O)CCC(=O)Nc2ccccn2)cc1,0.5,0.799,-0.8,4.6,-5.9%,-2.9,-1.5
Cc1ccc(-c2noc(CCC(=O)NCCCN3CCN(c4ccc(F)cc4)CC3)n2)cc1,0.9,0.736,-0.7,5.7,1.9%&-3.7%,-0.6,0.7
COc1ccc(NC(=O)[C@H](NC(=O)[C@@H]2Cc3ccccc3CN2)c2ccccc2)cc1,-0.3,0.654,8.0,12.1,6.1%,1.8,3.1
Cn1nnnc1SCCNC/C=C/c1ccccc1,1.0,0.695,-0.1,-6.6,4.1%,-3.2,0.4
CCOCCCNC(=O)C(c1ccccc1)N(Cc1cccs1)C(=O)c1ccccc1O (stereo unspecified),-0.1,0.674,2.2,9.0,-9.2%,-0.9,-0.3
Cc1ccc(N2C(=O)c3cccc4c(Oc5ccccc5[N+](=O)[O-])ccc(c34)C2=O)c(C)c1,-1.5,0.696,6.9,3.2,3.2%,9.8,-2.0
CN(CC(=O)NC1CCCCCC1)S(=O)(=O)c1ccc2c(c1)n(C)c(=O)c(=O)n2C,0.7,0.722,-8.1,-4.8,-1.1%,4.1,-2.5
COC(=O)C1=C(C)OC(N)=C(C#N)C1c1cc2cc(C)ccc2nc1Cl (stereo unspecified),0.9,0.667,-6.0,-6.7,nt,-3.2,2.2
[O-]/[N+](=C/c1ccc(F)cc1)c1ccccc1,-0.6,0.769,1.9,-4.5,6.7%,1.3,-1.4
O=C(COc1ccc(Nc2ccccc2)cc1)OCC(=O)N1CCCCC1,-1.7,0.68,3.5,-4.1,nt,2.8,0.0
O=C(Nc1ccc(C(F)(F)F)cc1)c1ccccc1-n1cnnn1,-0.6,0.677,-2.0,1.9,6.8%,3.2,-1.4

(cont.)
SMILES,Bfl-1 A1 inh,E coli growth,UCH37 DUB inh,Beta2AR agonist,Vif A3G,LANA-H2B inh,HNF4A DNA FP
O=C(/C=C/c1ccco1)Nc1ccc2nc3n(c(=O)c2c1)CCCC3,-1.3,0.675,7.6,2.0,8.7%,1.9,-5.8
CCCn1nc2cc(C(=O)N(CC)c3ccc(OC)cc3)ccc2c1OCC,-0.3,0.675,-31.3,0.2,-2.1%,3.8,1.1
C[C@]12C[C@H](O)[C@H]3[C@@H](CCC4=CC(=O)CC[C@@]43C)[C@@H]1CC[C@@H]2C(=O)CO,0.4,nt,0.7,-1.3,4.8%,3.9&-16.6,1.3
Cc1ccc(Cn2c(=N)c(C(=O)NCC3CCCO3)cc3c(=O)n4cccc(C)c4nc32)cc1 (stereo unspecified),-0.6,0.642,i,-19.5,10.5%,3.1,2.0
CCOc1cc(N2CCOCC2)c(OCC)cc1NC(=O)COC(=O)c1c(CC)noc1C,0.0,0.655,1.3,8.3,11.3%,-3.8,-2.3
O=[N+]([O-])c1ccc(C(O)CSC(=S)N2CCCCC2)cc1 (stereo unspecified),0.6,0.641,-1.6,-5.7,nt,0.9,-0.8
O=C(CSc1nnnn1-c1ccccc1Cl)Nc1ccc2c(c1)OCCO2,0.0,0.791,5.9,0.2,21.9%&0.5%,-0.4,-1.5
COCCNC(=O)c1c(CSc2ccccc2)noc1C(=O)NCc1ccccc1,0.7,0.693,1.7,-3.8,3.9%,4.1,-1.4
O=C(CN1CSCC1=O)N1CCN(S(=O)(=O)c2cccc(F)c2)CC1,0.8,0.693,-1.6,2.2,nt,1.6,-0.6
CN(Cc1ccccc1)C(=O)COc1ccc(N(C)S(=O)(=O)c2ccc(F)cc2)cc1,0.6,0.664,-1.5,-6.1,9.0%,0.3,-1.8
Cc1cc(C)c2nc(-c3cccnc3)cc(C(=O)NC(C)c3cnn(C)c3C)c2c1 (stereo unspecified),0.7,0.697,-131.7,-0.3,2.7%,-3.6,3.9
O=C(c1ccc(Cl)cc1)N(Cc1cccs1)C1CCS(=O)(=O)C1 (stereo unspecified),-0.3,0.777,0.2,0.9,2.2%,2.0,-1.0

(next part)
SMILES,Bfl-1 A1 inh,E coli growth,UCH37 DUB inh,Beta2AR agonist,Vif A3G,LANA-H2B inh,HNF4A DNA FP
CCCCCCCCCCOC(=O)Cn1c(COc2ccc(C)cc2)[n+](C)c2ccccc21,0.4,nt,nt,-9.2,nt,15.8*,12.3
O=c1cc(CCl)[nH]c2nc3ccccc3n12,0.9,0.592,1.0,-0.4,18.1%,-2.0,0.7
Cc1ccc(CCN2CC(C(=O)NCCC(C)C)CC2=O)cc1 (stereo unspecified),-0.2,0.688,0.2,-5.4,nt,-5.5,2.8
COc1ccc(C(=O)Nc2ccc(NC(=O)c3cccs3)cc2)cc1[N+](=O)[O-],1.1,0.728,2.0,-0.9,3.1%,1.6,0.7
CCN(CC)CCN(Cc1cc2cc3c(cc2[nH]c1=O)OCO3)C(=S)NCC(C)C,-0.3,0.66,-169.0,2.5,nt,2.3,4.8
COC(=O)C1CCN(c2ccc(Cl)nn2)CC1,0.5,0.709,2.8,1.6,nt,-5.2,0.7
Cc1cccc2cncc(OCc3nnc(SC(F)F)n3C)c12,-0.2,0.736,-6.0,4.0,7.6%,-2.8,5.3
Cn1c(=O)c2c(SCC(=O)Nc3ccccc3F)nc(-c3ccccc3F)nc2n(C)c1=O,0.9,0.671,-0.1,4.9,nt,1.4,-2.1
CC(C)(C)c1ccc(OCCC(=O)OCC(=O)NCc2ccccc2)cc1,-0.2,0.623,5.8,-10.4,9.6%,-1.8,-3.0
S=C(NCc1ccccc1)N1CCN(c2cccc(Cl)c2)CC1,1.1,0.653,1.4,-19.6,3.7%,3.1,-2.1
COC(=O)c1ccc(OC(=O)c2ccc(OC)cc2)c(OC)c1,-1.0,0.671,3.5,1.3,12.8%,2.5,-1.5

Compound activity from PubChem.

This is a random part of the collection (roughly 2.1% active in at least one column).
